KCNQ2 inh – KCNQ2 channel blockers in CHO-K1 cells – cell-based, FluxOR thallium flux, B-score, primary screen (AID 2156). 20 min; hits give low values; only compounds with negative scores are shown here; some inactives read as strong as hits. B-score at 10 µM. 310,000 compounds, 1.1% hits;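 active means fluorescence ratio B-score at most minus 3 library SDs, with starting brightness B-score within 2 library SDs, cut at about -5.5 in these data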
Target sequence (O88943 whole entry, looked up): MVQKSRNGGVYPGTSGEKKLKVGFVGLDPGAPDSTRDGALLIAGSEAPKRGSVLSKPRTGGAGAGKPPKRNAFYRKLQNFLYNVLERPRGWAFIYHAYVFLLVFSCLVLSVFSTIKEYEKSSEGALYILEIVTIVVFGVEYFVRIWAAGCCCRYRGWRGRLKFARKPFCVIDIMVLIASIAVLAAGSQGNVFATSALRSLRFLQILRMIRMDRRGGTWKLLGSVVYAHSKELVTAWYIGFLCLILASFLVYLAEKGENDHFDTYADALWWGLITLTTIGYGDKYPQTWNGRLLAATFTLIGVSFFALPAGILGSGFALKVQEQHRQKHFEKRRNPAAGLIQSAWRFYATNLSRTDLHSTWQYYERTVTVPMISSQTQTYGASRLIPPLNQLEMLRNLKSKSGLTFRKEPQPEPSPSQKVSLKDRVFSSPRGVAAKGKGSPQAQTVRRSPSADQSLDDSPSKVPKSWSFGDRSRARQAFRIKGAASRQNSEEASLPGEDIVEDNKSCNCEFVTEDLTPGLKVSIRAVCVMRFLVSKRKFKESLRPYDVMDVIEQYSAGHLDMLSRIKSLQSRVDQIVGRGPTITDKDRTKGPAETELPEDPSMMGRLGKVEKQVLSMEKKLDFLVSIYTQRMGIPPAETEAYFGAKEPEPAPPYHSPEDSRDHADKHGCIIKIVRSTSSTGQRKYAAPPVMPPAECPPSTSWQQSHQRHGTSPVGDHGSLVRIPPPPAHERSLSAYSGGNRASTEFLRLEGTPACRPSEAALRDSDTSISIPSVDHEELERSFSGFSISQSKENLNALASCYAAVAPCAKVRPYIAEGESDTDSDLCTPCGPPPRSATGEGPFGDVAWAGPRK
KCNQ2 inh baseline – further read-out of KCNQ2 inh, marked with its call; B-score; measured here: initial fluorescence intensity artifact check;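 brightness before thallium and not channel activity; 0 = typical well and far values either way flag optical interference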
Active calls of the source: *.

What do the screens show for `Cn1cc(CN2CCCC(C(=O)c3cccs3)C2)c(-c2cccc(Cl)c2)n1` (stereo unspecified)?
KCNQ2 inh: inactive; KCNQ2 inh baseline: -0.44

Results for CSc1ccccc1C(=O)NCCCOC(C)C ?
KCNQ2 inh: inactive; KCNQ2 inh baseline: 0.08

How did O=C(O)c1csc(N/N=C/c2ccc(Br)cc2)n1 do in these assays?
KCNQ2 inh: inactive; KCNQ2 inh baseline: -0.13

What do the screens show for `CC(=O)Nc1ccc(C(=O)CS(=O)(=O)c2ccc(C)cc2)cc1`?
KCNQ2 inh: inactive; KCNQ2 inh baseline: -0.03

What do the screens show for `COc1ccc(OC)c(NC(=O)CCN2CC(C)OC(C)C2)c1` (stereo unspecified)?
KCNQ2 inh: inactive; KCNQ2 inh baseline: -1.9

How did NS(=O)(=O)c1cccn1-c1ncc(C(F)(F)F)cc1Cl do in these assays?
KCNQ2 inh: inactive; KCNQ2 inh baseline: 0.92

Results for CSc1ccccc1NC(=O)CN(C)CC(=O)Nc1c(F)cccc1F ?
KCNQ2 inh: inactive; KCNQ2 inh baseline: 1.3

Results for COc1cc(COc2ccc3c(C)c(Cc4ccccc4)c(=O)oc3c2)cc(OC)c1OC ?
KCNQ2 inh: inactive; KCNQ2 inh baseline: -0.55

Results for Cc1ccnc(NC(=O)CCC(=O)N(CC(=O)NC(C)(C)C)c2ccc3c(c2)OCO3)c1 ?
KCNQ2 inh: inactive; KCNQ2 inh baseline: -0.02

How did CN1CCCN(Cc2ccccc2Br)CC1 do in these assays?
KCNQ2 inh: inactive; KCNQ2 inh baseline: 0.99

How did CCOC(=O)N1C/C(=C\c2ccccc2)C(=O)/C(=C/c2ccccc2)C1 do in these assays?
KCNQ2 inh: -6.9*; KCNQ2 inh baseline: 1*

What do the screens show for `COc1ccccc1CNC(=O)C1COc2ccccc2O1` (stereo unspecified)?
KCNQ2 inh: inactive; KCNQ2 inh baseline: 0.25

What do the screens show for `COc1cc(NC(=O)c2cc3ccccc3cc2OC)ccc1NC(=O)c1cccs1`?
KCNQ2 inh: inactive; KCNQ2 inh baseline: -0.65

Results for N#CC1=C(S)N(c2ccccc2)C(c2ccc(-c3cc(Cl)ccc3Cl)o2)NC1=O (stereo unspecified) ?
KCNQ2 inh: inactive; KCNQ2 inh baseline: -0.66

Results for Cc1nnc(SCCC(=O)Nc2nc(-c3ccccc3)ns2)s1 ?
KCNQ2 inh: inactive; KCNQ2 inh baseline: 2.1

How did Cc1cc(OCC(=O)NC(C)c2ccccc2)ccc1[N+](=O)[O-] (stereo unspecified) do in these assays?
KCNQ2 inh: inactive; KCNQ2 inh baseline: 0.92

How did COc1cccc2c1OC1(C)CC2NC(=O)N1c1cccc(C(=O)N2CCN(c3ccccc3)CC2)c1 (stereo unspecified) do in these assays?
KCNQ2 inh: inactive; KCNQ2 inh baseline: 0.13

How did CNC(=S)N(Cc1cc2cc(OC)c(OC)cc2[nH]c1=O)C1CCCC1 do in these assays?
KCNQ2 inh: inactive; KCNQ2 inh baseline: 0.95

Results for [O-][n+]1c2ccccc2c2n1CCN=C2c1ccc(Cl)cc1 ?
KCNQ2 inh: inactive; KCNQ2 inh baseline: 1.2

What do the screens show for `CCC(C)(C)NC(=O)COc1ccc(OCc2ccccc2)cc1`?
KCNQ2 inh: inactive; KCNQ2 inh baseline: -0.08

How did CC(C(=O)N1CCOCC1)N1C(=O)c2ccccc2C1=O (stereo unspecified) do in these assays?
KCNQ2 inh: inactive; KCNQ2 inh baseline: 0.57

Results for CN1CCN(c2ccc(S(=O)(=O)N3CCCCC3)cc2NC(=O)COc2ccc(F)cc2)CC1 ?
KCNQ2 inh: inactive; KCNQ2 inh baseline: -1.2

How did CCOc1ccc(N(CC(=O)N/N=C/c2cc(Br)c(C)o2)S(C)(=O)=O)cc1 do in these assays?
KCNQ2 inh: inactive; KCNQ2 inh baseline: 0.47

What do the screens show for `O=S(=O)(Nc1ccc(Br)cc1)c1cccc2cccnc12`?
KCNQ2 inh: inactive; KCNQ2 inh baseline: -0.66

Results for COc1ccccc1N1CCN(C(=O)c2ccc3nc[nH]c3c2)CC1 ?
KCNQ2 inh: inactive; KCNQ2 inh baseline: -0.06

Results for CCOc1ccccc1C1CC(c2cccc(NS(C)(=O)=O)c2)=NN1C(=O)c1ccccc1 (stereo unspecified) ?
KCNQ2 inh: inactive; KCNQ2 inh baseline: -0.06

What do the screens show for `CN(c1ccc(OCC(=O)OCC(=O)Nc2c(F)c(F)c(F)c(F)c2F)cc1)S(=O)(=O)c1ccc(F)cc1`?
KCNQ2 inh: inactive; KCNQ2 inh baseline: 0.96

Results for COC(=O)c1c(C)[nH]c(C(=O)C(C)OC(=O)C2=NNC(=O)CC2)c1C (stereo unspecified) ?
KCNQ2 inh: inactive; KCNQ2 inh baseline: 0.46

What do the screens show for `O=C(NC1CCCCC1)C(c1ccc(O)c(O)c1)N(C(=O)Cn1nnc2ccccc21)c1cccc(O)c1` (stereo unspecified)?
KCNQ2 inh: inactive; KCNQ2 inh baseline: 1.3

What do the screens show for `Cc1cc(Cl)ccc1Oc1ccccc1C(=O)CC#N`?
KCNQ2 inh: inactive; KCNQ2 inh baseline: -0.96

How did c1ccc2c(C3=NNC(=NC4CC4)SC3)c[nH]c2c1 do in these assays?
KCNQ2 inh: inactive; KCNQ2 inh baseline: 0.34

How did COc1ccccc1NS(=O)(=O)c1cc(NC(=O)Nc2cccc(C)c2)ccc1N1CCCCC1 do in these assays?
KCNQ2 inh: inactive; KCNQ2 inh baseline: 1.8

What do the screens show for `Cc1ccc(C)c(NCC(O)c2ccccc2)c1` (stereo unspecified)?
KCNQ2 inh: inactive; KCNQ2 inh baseline: 0.98

How did CCOC(=O)C(C)n1cnc2c(cnn2-c2ccc(Cl)cc2)c1=O (stereo unspecified) do in these assays?
KCNQ2 inh: inactive; KCNQ2 inh baseline: 3.2

Results for N#C/C(=C\c1cccc(Oc2ccc(C(F)(F)F)cc2[N+](=O)[O-])c1)c1nc2ccccc2[nH]1 ?
KCNQ2 inh: inactive; KCNQ2 inh baseline: -0.9

How did COc1ccc(C)cc1NC(=O)NC(C)c1ccncc1 (stereo unspecified) do in these assays?
KCNQ2 inh: inactive; KCNQ2 inh baseline: -0.29

How did Cc1c(C(=O)Nc2nc3ccccc3[nH]2)oc2ccc(Br)cc12 do in these assays?
KCNQ2 inh: inactive; KCNQ2 inh baseline: -0.95

What do the screens show for `Cc1nn(Cc2ccccc2)c(C)c1CCC(=O)O`?
KCNQ2 inh: inactive; KCNQ2 inh baseline: 0.23

How did COc1ccc(C2/C=C\CN(S(=O)(=O)/C=C/c3ccccc3)CC(=O)N2Cc2ccc(F)cc2)cc1 (stereo unspecified) do in these assays?
KCNQ2 inh: inactive; KCNQ2 inh baseline: -0.11

Results for Nc1[nH]c2cc([N+](=O)[O-])ccc2c1-c1ccccn1 ?
KCNQ2 inh: inactive; KCNQ2 inh baseline: 0.01

What do the screens show for `COc1ccc(C)cc1NC(=S)Nc1ccccc1SC`?
KCNQ2 inh: inactive; KCNQ2 inh baseline: 0.03

What do the screens show for `O=C(/C=C/c1ccco1)Nc1ccc2nc3n(c(=O)c2c1)CCCC3`?
KCNQ2 inh: inactive; KCNQ2 inh baseline: 0.66

What do the screens show for `Cc1cccc(C)c1NC(=O)CSc1cc(C(=O)c2nccn2C)c2ccccc2n1`?
KCNQ2 inh: inactive; KCNQ2 inh baseline: 0.64

How did O=C(/C=C/c1ccccn1)c1cc(Br)ccc1O do in these assays?
KCNQ2 inh: inactive; KCNQ2 inh baseline: -0.16

What do the screens show for `COc1ccc(CCNC(=O)N2c3ccccc3Sc3ccccc32)cc1`?
KCNQ2 inh: inactive; KCNQ2 inh baseline: -0.58

How did CCN(CC)S(=O)(=O)c1cc(NC(=O)CSc2nccn2C)ccc1C do in these assays?
KCNQ2 inh: inactive; KCNQ2 inh baseline: 0.01

What do the screens show for `COc1ccc(NC2CCCN(C(=O)c3ccc4nc(C)c(C)nc4c3)C2)cc1OC` (stereo unspecified)?
KCNQ2 inh: inactive; KCNQ2 inh baseline: -0.43

Results for CCOC(=O)/C=C/C(=O)Nc1ccc(S(=O)(=O)N2CCc3ccccc32)cc1 ?
KCNQ2 inh: inactive; KCNQ2 inh baseline: -0.03

Some of these compounds in order of formula weight, smallest number first.
Results for Nc1[nH]c2cc([N+](=O)[O-])ccc2c1-c1ccccn1 ?
KCNQ2 inh: inactive; KCNQ2 inh baseline: 0.01

How did COc1ccc(C)cc1NC(=O)NC(C)c1ccncc1 (stereo unspecified) do in these assays?
KCNQ2 inh: inactive; KCNQ2 inh baseline: -0.29

How did O=C(/C=C/c1ccccn1)c1cc(Br)ccc1O do in these assays?
KCNQ2 inh: inactive; KCNQ2 inh baseline: -0.16

What do the screens show for `COc1ccc(C)cc1NC(=S)Nc1ccccc1SC`?
KCNQ2 inh: inactive; KCNQ2 inh baseline: 0.03

What do the screens show for `O=C(/C=C/c1ccco1)Nc1ccc2nc3n(c(=O)c2c1)CCCC3`?
KCNQ2 inh: inactive; KCNQ2 inh baseline: 0.66

How did CCN(CC)S(=O)(=O)c1cc(NC(=O)CSc2nccn2C)ccc1C do in these assays?
KCNQ2 inh: inactive; KCNQ2 inh baseline: 0.01

Results for CCOC(=O)/C=C/C(=O)Nc1ccc(S(=O)(=O)N2CCc3ccccc32)cc1 ?
KCNQ2 inh: inactive; KCNQ2 inh baseline: -0.03

What do the screens show for `COc1ccc(NC2CCCN(C(=O)c3ccc4nc(C)c(C)nc4c3)C2)cc1OC` (stereo unspecified)?
KCNQ2 inh: inactive; KCNQ2 inh baseline: -0.43

What do the screens show for `Cc1cccc(C)c1NC(=O)CSc1cc(C(=O)c2nccn2C)c2ccccc2n1`?
KCNQ2 inh: inactive; KCNQ2 inh baseline: 0.64

How did COc1ccc(C2/C=C\CN(S(=O)(=O)/C=C/c3ccccc3)CC(=O)N2Cc2ccc(F)cc2)cc1 (stereo unspecified) do in these assays?
KCNQ2 inh: inactive; KCNQ2 inh baseline: -0.11

Next compounds.
Results for Cc1cc(Br)cc2c1NC(=O)C2(O)CC(=O)c1ccco1 (stereo unspecified) ?
KCNQ2 inh: inactive; KCNQ2 inh baseline: -0.11

Results for CC1(C)CC(CC(=O)O)CC(C)(C)N1 ?
KCNQ2 inh: inactive; KCNQ2 inh baseline: 0.47

Results for CCOc1ccc(OCC)c(S(=O)(=O)NCCOC23CC4CC(CC(C4)C2)C3)c1 ?
KCNQ2 inh: inactive; KCNQ2 inh baseline: 0.53

Results for CC1OC2(OC1C)C(=O)Nc1ccccc12 (stereo unspecified) ?
KCNQ2 inh: inactive; KCNQ2 inh baseline: 0.29

How did CS(=O)(=O)N(CC(=O)N1CCN(c2ccccc2F)CC1)c1ccc2c(c1)OCCO2 do in these assays?
KCNQ2 inh: inactive; KCNQ2 inh baseline: -0.6

Results for COc1cc(NC(=O)CN2C(=O)NC(C)(c3ccc4ccccc4c3)C2=O)c(C)cc1[N+](=O)[O-] (stereo unspecified) ?
KCNQ2 inh: inactive; KCNQ2 inh baseline: -0.23

Results for CCCC[C@H](CN(N=O)[C@@H](Cc1ccccc1)CN(C)N=O)N(CCc1ccccc1)N=O ?
KCNQ2 inh: inactive; KCNQ2 inh baseline: 0.15

How did Cn1nc(C(F)(F)F)c(C(=O)Nc2ccc(Cl)cc2)c1Cl do in these assays?
KCNQ2 inh: inactive; KCNQ2 inh baseline: 2.5

Results for CCCc1nc(NCc2ccccn2)c2nnn(Cc3ccccc3F)c2n1 ?
KCNQ2 inh: inactive; KCNQ2 inh baseline: -0.63

How did C/C(=N\NC(=O)c1sccc1-n1cccc1)c1cccs1 do in these assays?
KCNQ2 inh: inactive; KCNQ2 inh baseline: -1.1

What do the screens show for `CCOc1cc(NC(=O)c2ccccn2)c(OCC)cc1NC(=O)c1ccc(OC)cc1`?
KCNQ2 inh: inactive; KCNQ2 inh baseline: 0.5

How did CNC(=O)c1ccccc1Sc1ccccc1C#N do in these assays?
KCNQ2 inh: inactive; KCNQ2 inh baseline: 1.3

Results for COC(=O)c1ccc(OC(=O)CCN2C(=O)C3CCCCC3C2=O)cc1 (stereo unspecified) ?
KCNQ2 inh: inactive; KCNQ2 inh baseline: 0.46

What do the screens show for `CCOC(=O)Cc1cc(-c2ccccc2)nc2ccc3ccccc3c12`?
KCNQ2 inh: inactive; KCNQ2 inh baseline: 0.74

What do the screens show for `O=C(CC(Sc1ccc(Br)cc1)C(=O)O)c1ccc(Br)cc1` (stereo unspecified)?
KCNQ2 inh: inactive; KCNQ2 inh baseline: -0.1

What do the screens show for `CCc1nnc(N/N=C/c2cc(Br)c(O)cc2O)n1N`?
KCNQ2 inh: inactive; KCNQ2 inh baseline: -1.6

How did Fc1cccc(Nc2ncnc3sc4c(c23)CCC4)c1 do in these assays?
KCNQ2 inh: inactive; KCNQ2 inh baseline: 0.98

What do the screens show for `CC(C)Sc1nc2sc3c(c2c2nnc(SCC(=O)NCc4ccco4)n12)CCCC3`?
KCNQ2 inh: inactive; KCNQ2 inh baseline: -1.7

How did Cc1ccc(Cn2nnc3c(=O)n(CC(=O)N4CCCc5ccccc54)cnc32)cc1 do in these assays?
KCNQ2 inh: inactive; KCNQ2 inh baseline: -1.4

What do the screens show for `CC(C)(O)c1cn(-c2nonc2N)nn1`?
KCNQ2 inh: inactive; KCNQ2 inh baseline: -1.4

How did CCOc1cc(CNCc2cccs2)cc(Br)c1OC do in these assays?
KCNQ2 inh: inactive; KCNQ2 inh baseline: -0.91

What do the screens show for `CCOC(=O)/C(=C\Nc1ccc(OC(F)(F)F)cc1)Sc1ncc(C(F)(F)F)cc1Cl`?
KCNQ2 inh: inactive; KCNQ2 inh baseline: 0.11

What do the screens show for `COc1cc2c(cc1OC)C(=O)Cc1ccc3c(c1CN(C)CC2)OCO3`?
KCNQ2 inh: inactive; KCNQ2 inh baseline: -0.41

How did CCOC(=O)c1c(C)[nH]c(C)c1S(=O)(=O)NCC(=O)Nc1ccccn1 do in these assays?
KCNQ2 inh: inactive; KCNQ2 inh baseline: -0.12

Results for CC1SC(C)C(=O)N(CC(=O)NCc2ccc(F)cc2)C1=O (stereo unspecified) ?
KCNQ2 inh: inactive; KCNQ2 inh baseline: 0.43

Results for Cn1cc(CN2CCC[C@H]2CO)c(-c2cccc(Cl)c2)n1 ?
KCNQ2 inh: inactive; KCNQ2 inh baseline: -0.24

Only part of the results is shown; the hit share may differ from the screen's.
